# Compound activity as filed in PubChem BioAssay.
# HIV Env fusion = inhibitors of HIV Env-mediated cell fusion; HeLa-JRFL Env/CEM21 cell fusion, luciferase; inhibition, % at 12.3 µM; 1.1% of 360,000 active; AID 651610;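 active = mean replicate inhibition score of at least 50 and every replicate individually at or above 50; inconclusive = only one of the two criteria met; inactive = mean below 50 and not all replicates reaching 50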;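 note: 0% = plate neutral controls and 100% = maraviroc near 300 nM; one replicate is shown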
# The depositor's hits bear a star; i = inactive; ? = inconclusive; [ ] = another dose, or the depositor's remark. A portion of the library; the hit share may differ from the screen's.
structure,HIV Env fusion
COCCNC(=O)C[C@H]1C[C@@H]2c3cc(NS(=O)(=O)c4ccccc4)ccc3O[C@@H]2[C@@H](CO)O1,18[16.7 µM]
CC(C)NC(=O)Nc1ccc2c(c1)C(=O)N([C@H](C)CO)C[C@@H](C)[C@H](CN(C)Cc1ccncc1)OCCCC[C@H](C)O2,6[16.7 µM]
C[C@H](NC(=O)C[C@@H]1CC[C@@H]2[C@H](COc3ccc(NS(=O)(=O)c4ccc(Cl)cc4)cc3C(=O)N2C)O1)c1ccccc1,-13[16.7 µM]
CCOC(=O)N1CCN(C(=O)C[C@H]2C[C@@]3(C(=O)OC)C(=C[C@H](C(C)(C)C)O[C@@H]3C)N(Cc3ccccc3)C2=O)CC1,20
CCCNC(=O)Nc1ccc2c(c1)C(=O)N(C)C[C@H](OC)[C@@H](C)CN[C@@H](C)CO2,-3[16.7 µM]
COc1cc(CN2CC3(CCN(C(=O)CN4CCOCC4)CC3)c3c(n(C)c4cc(OC)ccc34)[C@@H]2CO)cc(OC)c1,13[16.7 µM]
CS(=O)(=O)Nc1ccc2c(c1)[C@H]1C[C@H](CC(=O)NCc3ccc(Cl)cc3)O[C@@H](CO)[C@H]1O2,-4[16.7 µM]
CN1C(=O)c2cc(NC(=O)c3cscn3)ccc2OC[C@H]2O[C@H](CC(=O)NCc3ccc(Cl)c(Cl)c3)CC[C@@H]21,?
CN1C(=O)c2cc(NC(=O)C3CCCCC3)ccc2OC[C@H]2O[C@H](CC(=O)NCc3ccccc3F)CC[C@H]21,8[16.7 µM]
O=C(C[C@@H]1C[C@@H]2c3cc(NC(=O)C4CCOCC4)ccc3O[C@@H]2[C@H](CO)O1)NCc1ccc2c(c1)OCO2,0[16.7 µM]
CO[C@H]1CN(C)C(=O)c2ccc(NC(=O)c3ccccc3)cc2OC[C@H](C)N(CC2CC2)C[C@@H]1C,1[16.7 µM]
CCCNC(=O)N[C@@H]1CC[C@@H](CC(=O)NC2CCC2)O[C@H]1CO,-5[16.7 µM]
C=CCOC(=O)c1oc(COC[C@@H](NC(=O)N(C)Cc2ccccc2)c2ccccc2)c(C(=O)OC)c1C(=O)OC,12[16.7 µM]
Cc1ccc2nc(-c3cccc(Cl)c3)c(Cc3ccccc3C(F)(F)F)n2c1,17
C[C@@H]1CN([C@H](C)CO)C(=O)Cc2cc(NC(=O)CCCCCC(=O)Nc3ccccc3N)ccc2O[C@H]1CN(C)C(=O)Nc1ccc(F)cc1,-62[16.7 µM]
O=C(C[C@@H]1C[C@H]2c3cc(NC(=O)c4ccc5c(c4)OCO5)ccc3O[C@H]2[C@H](CO)O1)NC1CCCCC1,-14[16.7 µM]
CN1CCN(C(=O)[C@H]2[C@H](CO)[C@H]3Cn4c(ccc(/C=C/c5ccccc5)c4=O)[C@H]3N2CC2CC2)CC1,15[16.7 µM]
CCN1[C@@H]2Cn3c(ccc(C4=CCCCC4)c3=O)[C@H]1[C@@H](C(=O)NCCOC)[C@@H]2CO,-7[16.7 µM]
C[C@@H]1CN([C@@H](C)CO)C(=O)Cc2cc(NS(=O)(=O)c3ccc(F)cc3)ccc2O[C@H]1CN(C)Cc1ccc(-c2ccccc2)cc1,-13[16.7 µM]
COc1ccccc1S(=O)(=O)N(C)C[C@@H]1OCc2ccccc2-c2ccccc2C(=O)N([C@H](C)CO)C[C@@H]1C,20[16.7 µM]
CN1C(=O)c2cc(NC(=O)C3CCOCC3)ccc2OC[C@H]2O[C@@H](CC(=O)NCc3ccc4c(c3)OCO4)CC[C@H]21,-9[16.7 µM]
CC(=Nc1ccc(Cl)cc1N)c1c(O)cc(C)oc1=O,i
O=C(NCC1CCCCC1)[C@@H]1[C@@H](CO)[C@@H]2Cn3c(cccc3=O)[C@@H]2N1C(=O)CC1CC1,40[16.7 µM]
COc1ccc(NC(=O)Nc2cccc3c2O[C@H](CN(C)Cc2ccc4c(c2)OCO4)[C@H](C)CN([C@H](C)CO)C3=O)cc1,-21[16.7 µM]
CC1CCN(CCNC(=O)c2ccc3c(=O)n(CCc4ccccc4)c(=O)[nH]c3c2)CC1,7
COCC(=O)N1C[C@@H](C)[C@@H](OC)CN(C)C(=O)c2ccc(NC(=O)c3ccc(OC)cc3)cc2OC[C@@H]1C,-15[16.7 µM]
C[C@@H]1Cn2cnc(C(=O)N(C)Cc3ccccc3)c2C(=O)N1,-39
COc1cccc(CNC(=O)[C@H]2CCCN2C(=O)[C@H]2CCCN2C(=O)c2cccc(OC)c2)c1,-12
O=C(N[C@@H](Cc1cccnc1)C(=O)N1CCC[C@H]1C(=O)NCCc1ccccc1Cl)c1cccs1,-39
COc1ccc(NC(=O)Nc2ccc3c(c2)C(=O)N(C)C[C@H](OC)[C@@H](C)CN[C@@H](C)CO3)cc1,-1[16.7 µM]
Cc1noc(C)c1NC(=O)N1C[C@@H](O)COC[C@@H]2O[C@H](CC(=O)N3CCc4ccccc4C3)CC[C@H]21,-4[16.7 µM]
CO[C@@H]1CN(C)C(=O)c2cc(NS(=O)(=O)c3cn(C)cn3)ccc2OC[C@H](C)N(CC2CC2)C[C@H]1C,2[16.7 µM]
COc1ccccc1S(=O)(=O)N(C)C[C@@H]1OCc2ccccc2-c2c(n(C)c3ccccc23)C(=O)N([C@H](C)CO)C[C@H]1C,6[16.7 µM]
O=C(NC1CCC1)[C@H]1[C@H](CO)[C@H]2Cn3c(ccc(/C=C/c4ccccc4)c3=O)[C@H]2N1Cc1cncnc1,15[16.7 µM]
CC(=O)C1=C(C)N(Cc2ccc(Br)cc2)C(=S)NC1c1cccc(F)c1 (stereo unspecified),?
COCCNC(=O)C[C@@H]1CC[C@@H]2[C@H](COc3ccc(NC(=O)Cc4ccccc4)cc3C(=O)N2C)O1,-6[16.7 µM]
COc1ccc(NC(=O)N(C)C[C@@H]2Oc3ccc(NS(=O)(=O)c4ccc(F)cc4)cc3CC(=O)N([C@H](C)CO)C[C@H]2C)cc1,-19[16.7 µM]
C[C@@H]1CN([C@@H](C)CO)C(=O)c2ccccc2-c2ccccc2CO[C@@H]1CN(C)S(=O)(=O)c1cccc(C#N)c1,8[16.7 µM]
CCCNC(=O)N1C[C@H](C)[C@@H](OC)CN(C)C(=O)c2cc(NC(=O)CCC)ccc2OC[C@@H]1C,4[16.7 µM]
C[C@H](CO)N1C[C@H](C)[C@@H](CN(C)S(=O)(=O)c2ccccc2F)OCc2ccccc2-c2c(n(C)c3ccccc23)C1=O,39[16.7 µM]
CN1C(=O)c2cc(NC(=O)c3ccc(Cl)cc3)ccc2OC[C@@H]2O[C@H](CC(=O)O)CC[C@H]21,7[16.7 µM]
C[C@H]1CN([C@@H](C)CO)C(=O)c2cc(NC(=O)Nc3cccc4ccccc34)ccc2O[C@@H]1CN(C)Cc1ccncc1,-12[16.7 µM]
C[C@H]1CN([C@@H](C)CO)C(=O)c2cc(NC(=O)C3CC3)ccc2O[C@@H]1CN(C)Cc1ccc(C(=O)O)cc1,-9[16.7 µM]
C#CCN(C[C@H]1[C@H](OC(=O)Nc2cccs2)[C@H](OC(=O)Nc2cccs2)CN(C(=O)OC(C)C)N1C(=O)OC(C)C)S(=O)(=O)c1ccc(C)cc1,117*
CO[C@H]1CC[C@H]2CCOc3ccc(C#N)cc3C(=O)N(C)C[C@H](C)C(=O)N(C)C[C@H]1O2,2[16.7 µM]
CO[C@@H]1CN(C)C(=O)c2cc(NS(C)(=O)=O)ccc2OC[C@@H](C)N(C(=O)C2CCOCC2)C[C@@H]1C,9[16.7 µM]
O=C(Cc1ccccn1)N[C@@H]1CC[C@H](CCn2cc(-c3ccccc3)nn2)O[C@H]1CO,16[16.7 µM]
COc1ccc(-c2cscc2N)cc1,-15
COc1ccc(S(=O)(=O)Nc2ccc3c(c2)[C@H]2C[C@@H](CC(=O)NCC4CC4)O[C@@H](CO)[C@H]2O3)cc1,-16[16.7 µM]
CO[C@@H]1CN(C)C(=O)c2ccc(NC(=O)Nc3c(C)noc3C)cc2OC[C@H](C)NC[C@H]1C,46[16.7 µM]
COc1ccc2c3c(n(C)c2c1)[C@H](CO)N(CC1CC1)CC31CN(C(=O)c2cccc(F)c2)C1,-24[16.7 µM]
CNC[C@H]1OCCCC[C@H](C)Oc2ccc(NS(=O)(=O)c3ccc(Cl)cc3)cc2C(=O)N([C@H](C)CO)C[C@@H]1C,-7[16.7 µM]
COc1cc(OC)cc(-c2cc3nc4c(c(N5CCN(c6cnccn6)CC5)n3n2)CCCC4)c1,-1
CSc1ccc(C(=O)NCC2CCN(C(=O)C(=O)c3cc4ccccc4o3)CC2)cc1,5
COc1cccc(S(=O)(=O)N(C)C[C@@H]2Oc3cc(C4=CCCCC4)ccc3S(=O)(=O)N([C@@H](C)CO)C[C@H]2C)c1,27[16.7 µM]
O=C(Nc1ccc2c(c1)[C@H]1C[C@H](CC(=O)N3CCOCC3)O[C@@H](CO)[C@H]1O2)Nc1ccccc1F,-52[16.7 µM]
C[C@H](CO)N1C[C@H](C)[C@@H](CN(C)S(=O)(=O)c2cccc(C#N)c2)OCc2ccccc2-c2c(n(C)c3ccccc23)C1=O,3[16.7 µM]
CCCN(C)C[C@@H]1OCCCC[C@@H](C)Oc2ccc(NC(=O)NC(C)C)cc2C(=O)N([C@H](C)CO)C[C@@H]1C,8[16.7 µM]
O=C(C[C@@H]1C=C[C@H](NC(=O)c2cccc(F)c2)[C@@H](CO)O1)Nc1nccs1,7[16.7 µM]
C[C@@H]1CN([C@@H](C)CO)C(=O)c2cc(NC(=O)CCCN(C)C)ccc2O[C@H]1CN(C)C(=O)NC1CCCCC1,14[16.7 µM]

# Entries above containing two or more sulfur atoms:
structure,HIV Env fusion
C#CCN(C[C@H]1[C@H](OC(=O)Nc2cccs2)[C@H](OC(=O)Nc2cccs2)CN(C(=O)OC(C)C)N1C(=O)OC(C)C)S(=O)(=O)c1ccc(C)cc1,117*
COc1cccc(S(=O)(=O)N(C)C[C@@H]2Oc3cc(C4=CCCCC4)ccc3S(=O)(=O)N([C@@H](C)CO)C[C@H]2C)c1,27[16.7 µM]

# Reprinted from above (4 entries):
structure,HIV Env fusion
C[C@H](CO)N1C[C@H](C)[C@@H](CN(C)S(=O)(=O)c2cccc(C#N)c2)OCc2ccccc2-c2c(n(C)c3ccccc23)C1=O,3[16.7 µM]
CCCN(C)C[C@@H]1OCCCC[C@@H](C)Oc2ccc(NC(=O)NC(C)C)cc2C(=O)N([C@H](C)CO)C[C@@H]1C,8[16.7 µM]
O=C(C[C@@H]1C=C[C@H](NC(=O)c2cccc(F)c2)[C@@H](CO)O1)Nc1nccs1,7[16.7 µM]
C[C@@H]1CN([C@@H](C)CO)C(=O)c2cc(NC(=O)CCCN(C)C)ccc2O[C@H]1CN(C)C(=O)NC1CCCCC1,14[16.7 µM]

# (cont.)
structure,HIV Env fusion
C[C@@H]1CN([C@H](C)CO)C(=O)c2ccccc2-c2ccccc2CO[C@H]1CN(C)C(=O)[C@H](Cc1ccccc1)N(C)C,-32[16.7 µM]
C[C@H]1CCCCO[C@H](CN(C)C)[C@@H](C)CN([C@@H](C)CO)C(=O)c2cc(NS(=O)(=O)c3cn(C)cn3)ccc2O1,6[16.7 µM]
C[C@H]1CN([C@@H](C)CO)C(=O)CCCn2cc(nn2)CO[C@H]1CN(C)C(=O)NC1CCCCC1,-1[16.7 µM]
O=C(NC1Cc2ccccc2C1)[C@H]1[C@H](CO)[C@H]2Cn3c(cccc3=O)[C@@H]1N2C(=O)CC1CC1,13[16.7 µM]
CO[C@H]1CN(C)C(=O)c2cc(NC(=O)Nc3cccc(F)c3)ccc2OC[C@@H](C)N(C(=O)Nc2c(C)noc2C)C[C@@H]1C,-1[16.7 µM]
Cc1ccccc1-c1ccc2c(c1)[C@@H]1C[C@H]3[C@@H](CN1CC2)[C@H](C)OC(C1CCCCC1)N3C (stereo partly specified),-7
CC1(C)OC(=O)C2=C(CC(CCc3ccccc3)OC2CCc2ccccc2)O1 (stereo unspecified),18
COc1ccc(NC(=O)Nc2ccc3c(c2)CC(=O)N([C@@H](C)CO)C[C@H](C)[C@H](CN(C)S(=O)(=O)c2ccc(Cl)cc2)O3)cc1,-62[16.7 µM]
O=C1CSCN1c1ccccc1,-7[16.7 µM]
CC(C)(C)[C@@H]1C=C(C(=O)N2CCCC2)O[C@H](OCc2ccc(CO)cc2)C1,-13[16.7 µM]
C[C@@H]1CN([C@H](C)CO)C(=O)Cc2cc(NC(=O)Nc3ccc(C(F)(F)F)cc3)ccc2O[C@H]1CN(C)S(=O)(=O)c1ccc(F)cc1,17[16.7 µM]
CO[C@H]1CN(C)C(=O)c2ccc(NC(=O)Nc3c(C)noc3C)cc2OC[C@H](C)NC[C@@H]1C,-5[16.7 µM]
O=C(Nc1c(Cl)c(C2CC2)nn1-c1ccccc1)C(Cl)(Cl)Cl,19
CO[C@H]1CN(C)C(=O)c2cc(NS(=O)(=O)c3ccc(C)cc3)ccc2OC[C@@H](C)N(C(=O)NC(C)C)C[C@H]1C,-5[16.7 µM]
Cc1cccc(N2CCN(C(=O)c3ccc4c(=O)[nH]c5c(C(=O)NC6CCCC6)sc(=S)n5c4c3)CC2)c1C,21
CO[C@H](CN(C)C(=O)C1CC1)[C@H](C)CN(C(=O)Nc1ccc(C(F)(F)F)cc1)[C@H](C)CO,-4[16.7 µM]
Cc1ccccc1CN1[C@@H](CC(C)C)COc2cc(Br)ccc2S1(=O)=O,15
